Screens: PubChem, National Center for Advancing Translational Sciences (NCATS)
AmpC nodet inh = blocks E. coli AmpC beta-lactamase in absence of detergent | P00811 | AmpC nitrocefin hydrolysis, absorbance 480 nm, no detergent; potencies from a single point are estimates | Potency, µM (titrated, usually from 28.7 µM), inactives show at the top dose activity change, negative = inhibition | actives 1.8% (n = 71,000) | AID 585; active = falling curve, for most hits resting on a single point; inconclusive = weak or doubtful change; inactive = flat or rising curve; further: % of control where 0% means no effect; about half of the hits show no inhibition at the top dose; a quarter of the inactives give rising signals
Target sequence (P00811 whole entry, looked up): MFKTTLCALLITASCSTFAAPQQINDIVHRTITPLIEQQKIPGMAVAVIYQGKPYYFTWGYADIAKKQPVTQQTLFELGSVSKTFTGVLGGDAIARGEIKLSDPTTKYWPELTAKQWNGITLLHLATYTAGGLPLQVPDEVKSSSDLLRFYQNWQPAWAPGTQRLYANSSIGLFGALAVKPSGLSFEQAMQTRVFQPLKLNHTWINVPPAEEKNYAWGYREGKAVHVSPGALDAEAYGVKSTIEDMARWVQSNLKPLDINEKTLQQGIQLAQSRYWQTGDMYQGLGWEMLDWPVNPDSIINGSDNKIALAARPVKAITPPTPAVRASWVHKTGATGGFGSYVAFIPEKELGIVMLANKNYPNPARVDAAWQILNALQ
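AmpC in 20 mM phosphate buffer pH 7.0 was preincubated 15 min at room temperature with compounds. Nitrocefin (800 uM stock) was then added and hydrolysis followed at 480 nm every 20 s for 4 min.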
* = called active by the depositor; & = joins results of further samples; [ ] = dose if it differs, or a comment. Potency means the concentration at half of the fitted maximal effect.

The opening 6 entries, to show the layout:
entry	compound	AmpC nodet inh
1	O=C(CSc1nnc(COc2ccccc2)o1)N1CCN(c2ccccc2)CC1	32%
2	CC(C)n1nnnc1C(c1ccc(F)cc1)N1CCN(C2CCCC2)CC1 (centres undefined)	6%
3	Cc1cc(C)nc(N2CCN(c3ncnc4c3cnn4Cc3ccc(Cl)cc3Cl)CC2)n1	53%
4	COC(=O)N1CCC[C@@]2(CCN(C(=O)NC(C)C)C2)C1	23%
5	COC(=O)c1ccc2c(c1)NC(=O)C(N1CCCC1)S2 (centres undefined)	-7%
6	O=C(NCCN1CCCC1)C1(S(=O)(=O)c2ccc(Cl)cc2)CC1	-4%

The whole of this part, previewed entries included:
entry	compound	AmpC nodet inh
1	O=C(CSc1nnc(COc2ccccc2)o1)N1CCN(c2ccccc2)CC1	32%
2	CC(C)n1nnnc1C(c1ccc(F)cc1)N1CCN(C2CCCC2)CC1 (centres undefined)	6%
3	Cc1cc(C)nc(N2CCN(c3ncnc4c3cnn4Cc3ccc(Cl)cc3Cl)CC2)n1	53%
4	COC(=O)N1CCC[C@@]2(CCN(C(=O)NC(C)C)C2)C1	23%
5	COC(=O)c1ccc2c(c1)NC(=O)C(N1CCCC1)S2 (centres undefined)	-7%
6	O=C(NCCN1CCCC1)C1(S(=O)(=O)c2ccc(Cl)cc2)CC1	-4%
7	O=C(c1ccc(F)cc1)N1CCN(Cc2ccccc2Br)CC1	68%
8	CCN(CC)CCOC(=O)c1cc2cc(COC)ccc2o1	-3%
9	CCC(=O)Nc1nonc1-c1nc2ccccc2n1N(C(=O)CC)C(=O)CC	22%
10	CCCCn1c(=O)[nH]c(=O)c2c1nc(COC(=O)c1c(C)noc1C)n2CCC	27%
11	Fc1ccc(CSc2nnc(-c3cccs3)o2)cc1	4%
12	Cc1cccc(OCc2n[nH]c(=S)o2)c1	65%

The results go on:
entry	compound	AmpC nodet inh
13	O=C(c1ccc(N2CCCC2=O)cc1)N1CCN(c2ccccc2)CC1	23%
14	COc1ccc(C(=O)COC(=O)CSCc2c(C)noc2C)cc1OC	39%
15	O=C(NCc1ccncc1)c1cccc(Cn2cc(Br)cn2)c1	-3%
16	O=C(c1ccco1)N1CCC2(CC1)CCN(C(c1ccccc1)c1ccccc1)CC2	73%
17	CCCN(CCC)CCNC(=O)C1CCCN(S(=O)(=O)c2ccc3c(c2)oc(=O)n3C)C1 (centres undefined)	1%
18	COC(=O)C1=C(C)NC2=C(C(=O)c3ccccc32)C1c1ccc(-c2ccc(C(=O)O)cc2)o1 (centres undefined)	-1%
19	CCOC(=O)c1sc2nc(CC(=O)OC)nc(NCc3ccco3)c2c1C	55%
20	CN1CCN(/C(=N\O)c2nonc2N)CC1	0%
21	Cc1cccc(OCCCC(=O)O)c1	1%
22	CCS(=O)(=O)N1CCC(C(=O)NCCc2ccc(C)cc2)CC1	2%
23	COC(=O)c1ccc(NC(=O)C2CCCN2S(=O)(=O)c2ccc(F)cc2)cc1 (centres undefined)	12%
24	COCCN(C(=O)CCC(=O)Nc1cccnc1)C(C(=O)NC1CCCCC1)c1ccccc1 (centres undefined)	47%

Additional structures
entry	compound	AmpC nodet inh
25	CCN1CCN(CCCNC(=O)C(NC(=O)C2CCC(C)CC2)C(C)C)CC1 (centres undefined)	-1%
26	Cc1cccc2cc(COC(=O)c3cccnc3)c(=O)[nH]c12	10%
27	Cc1cccc2cc(C(c3nnnn3CC3CCCO3)N3CCCc4ccccc43)c(=O)[nH]c12 (centres undefined)	80%
28	O=C1c2ccccc2C(=O)N1c1ccc(S(=O)(=O)N2CCN(c3ccccc3)CC2)cc1	-2%
29	O=C(CN1C(=O)c2ccccc2C1=O)Nc1ccccc1F	-10%
30	CCCn1c(CNC(=O)c2cccs2)nc2ccccc21	3%
31	CCOc1ccc(OCC)c(NC(=O)CSCC(=O)O)c1	0%
32	O=C(CSc1nnc(-c2cccnc2)n1Cc1ccccc1)NCc1ccco1	109%
33	O=C(CSc1nc2ccc([N+](=O)[O-])cc2s1)c1ccc2ccccc2c1	-10%[5.75 µM]
34	CCOC(=O)c1ccc(N2C(=O)CC(N3CCC(C#N)(c4ccccc4)CC3)C2=O)cc1 (centres undefined)	105%
35	CCn1c(SC)nnc1-c1sc2cc(Cl)ccc2c1Cl	72%
36	CC1CCCC(C)N1C(=O)Cn1c(=O)sc2ccccc21 (centres undefined)	-5%

(more compounds)
entry	compound	AmpC nodet inh
37	C=C(C)CN1C(=O)C(O)(CC(=O)c2ccc3c(c2)OCCO3)c2ccccc21 (centres undefined)	15%
38	COc1cc(C2Nc3cc(Cl)c(S(N)(=O)=O)cc3S(=O)(=O)N2)cc(OC)c1OC (centres undefined)	-5%
39	CCOCCc1nnc(NC(=O)c2cc(OC)c(OC)c(OC)c2)s1	54%
40	Cc1cc(NS(=O)(=O)c2ccc(Cl)cc2)nn1CC(=O)NCc1ccco1	-6%
41	O=C(Cn1cccc1C(=O)c1ccccc1)NCc1cccnc1	7%
42	COC(=O)c1ccc(-c2ccc(C(=O)N3CCCN(C)CC3)cc2)cc1	-11%
43	CCCCNC(=O)CC(NS(=O)(=O)c1ccc(C)cc1)c1ccco1 (centres undefined)	-4%
44	Cc1c(S(=O)(=O)Nc2cc(Cl)ccc2Cl)c(=O)n(C)c(=O)n1C	8%
45	Cc1ccc(-c2noc(C3CCCN(C(=O)c4ccc(F)cc4F)C3)n2)cc1 (centres undefined)	80%
46	COc1ccc(CC(=O)NC2CCN(CC(=O)N3CCCc4ccccc43)CC2)cc1OC	33%
47	COc1ccc2c(C)cc(=O)oc2c1C	0%
48	CCOc1c(Cl)cc(C(=O)NCCN2CCCCC2)cc1Cl	11%

Remaining list, next part
entry	compound	AmpC nodet inh
49	CCn1c(NCc2ccc(N(C)C)cc2)nc2ccccc21	15%
50	Cc1ccc2c(COn3nnc4ccc(S(=O)(=O)N(C)C)cc43)cc(=O)oc2c1C	65%
51	O=C(Oc1ccnc2cc(Cl)ccc12)N1CCOCC1	2%
52	C=C1C[C@@]23C[C@]1(O)CC[C@@H]2[C@]12C=C[C@@H](O)[C@](C)(C(=O)O1)[C@H]2[C@H]3C(=O)O	0%[12.8 µM]
53	CO[C@@H]1C=CO[C@]2(C)Oc3c(C)c(O)c4c(O)c(c(C=NN5CCN(C)CC5)c(O)c4c3C2=O)NC(=O)C(C)=CC=C[C@H](C)[C@H](O)[C@H](C)[C@H](O)[C@H](C)[C@H](OC(C)=O)[C@H]1C	118%[12.8 µM]
54	Cn1cccc1C(=O)N1CCC[C@@]2(CCN(Cc3nccs3)C2)C1	40%
55	COC(=O)[C@@H]1[C@H]2C[C@H]3c4[nH]c5cc(OC)ccc5c4CCN3C[C@@H]2C[C@@H](OC(=O)c2cc(OC)c(OC)c(OC)c2)[C@@H]1OC	113%&148%
56	FC(F)(F)c1ccccc1-c1ccc2ncnc(NC3CCNCC3)c2c1	36%
57	Cc1nc2cc(N3CCCCC3)c(NC(=O)c3cccnc3)cc2c(=O)n1Cc1ccccc1	89%
58	Cn1ccnc1SCC(=O)c1cc2ccccc2o1	-11%
59	CN(C)P(=O)(C(Cl)=C(N1CCCCC1)N1CCCCC1)N(C)C	69%
60	O=C(COC(=O)C1CC2C=CC1C2)NCc1ccco1 (centres undefined)	5%

Later entries
entry	compound	AmpC nodet inh
61	CC(=O)O[C@H]1CC[C@@]2(C)C(=CC[C@@H]3[C@@H]4CC[C@H](c5cc(C(F)(F)F)n(C(C)=O)n5)[C@]4(C)CC[C@@H]32)C1	-5%[5.75 µM]
62	Cn1cc(-c2nc3cnc(N4CCNCC4)nc3n(Cc3ccc(F)cc3)c2=O)c2ccccc21	49%
63	O=S(=O)(c1ccc(OCC(O)CN2CCN(c3ccc(F)cc3)CC2)cc1)N1CCOCC1 (centres undefined)	74%
64	O=C(O)CCC1COc2ccccc2O1 (centres undefined)	2%
65	CC(=NCc1cccnc1)C1=C(O)c2ccccc2C1=O	2%
66	COC(=O)CC1Oc2ccccc2N(Cc2ccccc2)C1=O (centres undefined)	-3%
67	O=C(CSc1ncn[nH]1)Nc1nnc(-c2ccccc2)s1	-15%
68	COc1ccccc1-c1nc(C#N)c(N2CCN(c3cccc(Cl)c3)CC2)o1	12%
69	COc1ccc(/C=C/C(O)=C2/C(=O)N(C)C3(C)CC2c2ccccc2O3)cc1 (centres undefined)	4%
70	COc1cc(OC)c2c(C)cc(=O)oc2c1	-9%
71	CC1CN(C(=O)CN2C(=O)NC3(CCCCCCC3)C2=O)CC(C)O1 (centres undefined)	2%
72	COc1ccccc1NS(=O)(=O)c1ccc(O)c(C(N)=O)c1	-3%

(further entries)
entry	compound	AmpC nodet inh
73	COc1ccc(C2CC(c3ccc(Cl)cc3)n3nc(N)nc3N2)cc1 (centres undefined)	49%
74	CCCCCCCCCC[Si](C)(C)CCC(=O)N[C@@H](Cc1ccc(C)cc1)c1ccccc1	-8%
75	O=C(CCCOc1ccc(Cl)cc1Cl)N1CCN(c2ccccn2)CC1	112%
76	Cc1ccc(-n2nc3c(c2NC(=O)C(C)(C)C)CSC3)c(C)c1	7%
77	O=C(O)c1cc2cc(F)ccc2[nH]1	-6%&2%
78	O=C(CSc1nnc(-c2cnccn2)n1Cc1ccco1)c1ccc(Cl)c(Cl)c1	46%
79	Cc1cccc2cc(COC(=O)c3ccccn3)c(=O)[nH]c12	12%
80	CN1CCN(C(CNS(=O)(=O)c2ccc(F)cc2)c2cccnc2)CC1 (centres undefined)	4%
81	O=C(c1cnccn1)N1CCc2ccccc21	-5%
82	O=C(Nc1ccc(Cl)cc1C(=O)NCc1cccnc1)c1ccco1	-14%
83	Cc1noc(C)c1CSc1ccccc1C(=O)Nc1nccs1	-9%
84	O=C(NCCSCc1c(F)cccc1Cl)c1ccco1	1%

The list continues.
entry	compound	AmpC nodet inh
85	O=C(Cc1cn2ccsc2n1)NCc1ccccc1	-7%
86	C/C(O)=C(/C#N)C(=O)Nc1cc(Br)ccc1Br	-6%&-14%
87	Nc1cccc(S(=O)(=O)O)c1	-19%
88	O=C1CC(c2cccnc2)c2cc3c(cc2N1)OCCO3 (centres undefined)	-6%
89	CC1(C)CN=C(NC2CCCCC2)S1	2%
90	COC(=O)c1cccc(C(=O)Nc2cnc3ccccc3c2)n1	87%
91	COc1cccc(-c2cc(C(=O)Nc3ccc(OC)c(OC)c3)no2)c1	32%
92	CN(C(=O)c1ccncc1)c1nnc(-c2cnccn2)s1	2%
93	CCn1c(=O)c(C(=O)Nc2cnccn2)c(O)c2ccccc21	36%
94	Cc1cccc(C)c1NC(=O)C1CCCNC1 (centres undefined)	3%
95	COc1ccc(NC(=O)N2CC[C@@]3(CCCN(C(=O)c4cccc(F)c4)C3)C2)cc1	28%
96	CCOC(=O)CCc1c(C)n(CC)c2ncnn2c1=O	4µM*[single pt active]

Following part
entry	compound	AmpC nodet inh
97	COc1ccc(S(=O)(=O)N2CCN(Cc3ccc(Cl)cc3)CC2)cc1	34%
98	CC1CCc2sc3c(c2C1)c1ncnn1c(=O)n3CC(=O)c1ccc(Br)cc1 (centres undefined)	27%
99	CC(NC(=O)NC1CCCCC1)C(c1cccs1)N1CCOCC1 (centres undefined)	-2%
100	C[C@]12N[C@H](Cc3ccccc31)c1ccccc12	-7%&-3%
101	Cn1c(=O)c(=O)n(C)c2cc(S(=O)(=O)N3CCCCC3)ccc21	3%
102	COc1cc(-c2csc(N3CCOCC3)n2)cc(OC)c1OC	52%
103	CCC(=O)Nc1cc(NC(=O)CSc2nnc(C(C)C)n2CC)ccc1C	-1%
104	c1ccc(CN2CCC(N3CCN(Cc4ccc5c(c4)OCO5)CC3)CC2)cc1	1%
105	Cc1ccc(SCC(=O)N(Cc2nc(-c3ccccc3)no2)C(C)C)cc1	19%
106	Cc1cc(=O)oc2ccc(OCC(=O)N(Cc3ccc(F)cc3)Cc3ccco3)cc12	-4%
107	CCOC(=O)C1C2C=CC3(CN(c4cccc(Cl)c4)C(=O)C13)O2 (centres undefined)	-2%
108	O=C(CSc1nc(Nc2ccccc2)nc(N2CCOCC2)n1)Nc1ccccc1Cl	22%

Further structures follow:
entry	compound	AmpC nodet inh
109	O=C(CCSCCC(=O)NCC1CCCO1)NCC1CCCO1 (centres undefined)	14%
110	CCOC(=O)C1CCN(c2c(Nc3ccc4c(c3)OCCO4)c(=O)c2=O)CC1	1%
111	O=C(NS(=O)(=O)c1ccc2c(c1)OCCO2)c1ccccc1	-10%
112	CCn1c(Cc2ccc(OC)cc2)nnc1SCC(=O)Nc1cccc(C(=O)OC)c1	139%
113	CC(C)CN(C#N)c1nc(N2CCOCC2)nc(N2CCOCC2)n1	57%
114	Cc1ccc(-c2cc(C(=O)Nc3cc(C)on3)c3ccccc3n2)c(C)c1	4µM*[single pt active]
115	COc1ccc(-c2cn3cc(C)ccc3n2)cc1OC	34%
116	Cc1nc(NC2=NCN(Cc3ccco3)CN2)nc2ccccc12	-6%
117	O=c1[nH]c(=O)n(Cc2ccc(F)cc2)c(O)c1C=NCC1CCCO1 (centres undefined)	-7%
118	CCOC(=O)N1CCN(c2ccc(S(=O)(=O)N(Cc3ccccc3)Cc3ccccc3)cn2)CC1	68%
119	CCOc1ccc(N2CC(=O)SC2=S)cc1	-8%
120	CCOC(=O)C1CCCN(C(=O)CCCOc2cc(=O)n(C)c3ccccc23)C1 (centres undefined)	94%

Additional entries:
entry	compound	AmpC nodet inh
121	Cc1cc(N2CCCCC2)nc2ccc(Cc3ccc4nc(N5CCCCC5)cc(C)c4c3)cc12	-4%[5.75 µM]
122	COc1ccc(-c2c3c(=O)n(C)c(=O)n(C)c3cn2-c2ccccc2)cc1	48%
123	CCOC(=O)c1cc2cc(F)ccc2nc1C	9%
124	Cc1ccccc1C(=O)N1CCC(C(=O)Nc2cccc(F)c2)CC1	25%
125	CCCCc1cc(=O)oc2cc(C)cc(OC(C)C(=O)O)c12 (centres undefined)	-8%
126	O=S(=O)(CCSc1nc2ccccc2o1)Cc1ccccc1	-2%
127	CCOCCCNC(=O)c1ccc(CS(=O)(=O)Cc2cccc(C)c2)o1	18%
128	CCCCn1c(=O)cc(N2CCOCC2)[nH]c1=O	-6%
129	CCOC(=O)c1sc(NC(=O)c2ccc(Cl)s2)cc1C	0%
130	O=C(Nc1nccs1)c1c(O)c2cccc3c2n(c1=O)CCC3	39%

Not all compounds are listed; rates above refer to the full screens.
